# Screening results: PubChem BioAssay, Center for Chemical Genomics, University of Michigan
# CDC25B-CDK2 inh = human CDC25B-CDK2/CyclinA binding inhibition | 94,000 tested, 0.72% active | HTRF CDC25B-CDK2/CyclinA binding, anti-His/anti-Flag; active compounds read high | z-score (concentration not given with the values) | P30305+P24941;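 also: score is relative to mean and SD of negative controls; strong numbers were not always called active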
# HIV TAR-Tat = HIV-1 TAR-Tat binding disruption; HIV-1 TAR RNA, Tat peptide displacement FRET; active compounds read high; z-score (no concentration beside the values); 100,000 tested, 0.6% active;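 also: score is relative to mean and SD of negative controls; some compounds called inactive have numbers as strong as hits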
# The depositor's hits bear a star; · = no result given.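 The calls were made as follows: active = z-score from 3 up in half or more of its runs; inactive = the rest.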
1) CCOc1ccc(-n2nnc(-c3nc(-c4ccc(OC)cc4)no3)c2N)cc1
2) Cc1ccc(/C(O)=C2/C(=O)C(=O)N(c3cccnc3)C2c2cccc(F)c2)cc1 (configuration not stated)
3) CC(C)Oc1ccccc1C1C=C(C(=O)O)Nc2nnnn21 (configuration not stated)
4) c1ccc(CN2CCN(Cc3nnc(-c4ccccc4)o3)CC2)cc1
5) O=C1CCCc2cc(S(=O)(=O)NC3CCCC3)ccc2N1
6) CCc1ccccc1NC1=NS(=O)(=O)C(c2ccccc2)=C1C
entry no. | 1 | 2 | 3 | 4 | 5 | 6
CDC25B-CDK2 inh | · | -1.96 | · | -0.72 | · | -0.04
HIV TAR-Tat | 0.03 | 0.34 | 1.3 | 1.06 | 0.44 | 0.58

7) O=C1CN(Cc2ccccc2)S(=O)(=O)c2ccccc2N1Cc1ccccc1F
8) CC(C)Cn1cc(NC(=O)Nc2ccccn2)c2ccccc2c1=O
9) O=C1CC(c2cccc(F)c2)c2cnn(-c3nc4ccccc4s3)c2N1 (configuration not stated)
10) COCCCN(Cc1cccs1)S(=O)(=O)c1ccc2c(c1)CCCC(=O)N2
11) COc1ccc(C2CC(=O)N3CN(Cc4ccco4)CSC3=C2C#N)cc1 (configuration not stated)
12) CCOC(=O)Cn1nc(-c2ccc(F)cc2)cc(Cc2ccccc2)c1=O
entry no. | 7 | 8 | 9 | 10 | 11 | 12
CDC25B-CDK2 inh | · | · | · | · | 3.17* | 0.2
HIV TAR-Tat | 2.1 | 0.69 | 4 | 1.32 | 1.8 | ·

13) CCCC(=O)c1cc2cc(Br)ccc2oc1=O
14) O=C(NCC1CCCO1)c1c[nH]c2ccc(S(=O)(=O)Nc3ccc4c(c3)OCCO4)cc2c1=O (configuration not stated)
15) c1ccc(-n2nnnc2SCc2cn3cccnc3n2)cc1
16) Cn1c(=O)c2c(ncn2CC(=O)N2CCCc3ccccc32)n(C)c1=O
17) CC(C)c1ccc(-c2c(NCc3ccccc3Cl)c(=O)c2=O)cc1
18) CCOC(=O)N1CCN(c2c(NCc3ccccn3)c(=O)c2=O)CC1
entry no. | 13 | 14 | 15 | 16 | 17 | 18
CDC25B-CDK2 inh | -0.07 | -1.77 | -0.17 | -2.31 | · | -1.31
HIV TAR-Tat | · | · | · | 2.97 | 2.09 | 0.99

19) CN(C)CCCNC(=O)c1c(O)c2cccc3c2n(c1=O)CC3
20) c1ccc2c(Cc3c[nH]c4ccccc34)c[nH]c2c1
21) COc1ccccc1C1N(c2cc(Cl)ccc2OC)C(=O)C2CCCN21 (configuration not stated)
22) COc1ccccc1-c1nnc(SCC#CCO)o1
23) CC1=C(C(=O)NCC2CCCO2)C2(CCCCC2)OC1=O (configuration not stated)
24) CC1(C(=O)NC2CCCC2)CCC(=O)N1CCCN1CCOCC1 (configuration not stated)
entry no. | 19 | 20 | 21 | 22 | 23 | 24
CDC25B-CDK2 inh | · | · | 0.34 | -1.01 | -0.7 | -0.69
HIV TAR-Tat | 0.83 | 0.62 | 0.72 | -0.18 | -2.23 | -0.1

25) Cc1nc(-n2[nH]c(C)c(CCC(=O)N3CCN(c4ccccc4)CC3)c2=O)sc1C
26) CCOC(=O)c1nc(N2CCN(c3cccc(Cl)c3)CC2)c2c(C)noc2n1
27) Cc1cc2nc(COC(=O)c3ccc(C(C)(C)C)cc3)cc(=O)n2o1
28) O=C(Nc1ccc(F)c(Cl)c1)c1ccc2cccc(O)c2n1
29) C=CCN(Cc1nc(-c2ccc(C)cc2)no1)S(=O)(=O)c1ccc(Cl)cc1
30) Cc1ccc2nc(-c3ccc(N4C(=O)CC(NCc5ccco5)C4=O)cc3)sc2c1 (configuration not stated)
entry no. | 25 | 26 | 27 | 28 | 29 | 30
CDC25B-CDK2 inh | -1.31 | · | · | -0.78 | 1.3 | -1.93
HIV TAR-Tat | -1.06 | 1.21 | 1.33 | -0.17 | 1.71 | ·

31) COC(=O)c1cc(OC)nc(OC)c1
32) CC(C)c1ccc(NS(=O)(=O)c2ccc3c(c2)C(C)(C)C(=O)N3)cc1
33) Cc1cc(C)cc(Oc2coc3cc(OCC(=O)O)ccc3c2=O)c1
34) CCCCN(C)S(=O)(=O)c1c(C(=O)OCC)c(C)n(C)c1C
35) CCCN1CCN(CCCNS(=O)(=O)c2ccc3c(c2)C(C)(C)C(=O)N3C)CC1
36) CCOC(=O)C1=C(C)NC2=C(C(=O)C(C(=O)OC)C(C)C2)C1c1cccc(O)c1 (configuration not stated)
entry no. | 31 | 32 | 33 | 34 | 35 | 36
CDC25B-CDK2 inh | -0.81 | · | -1.55 | · | · | -1.18
HIV TAR-Tat | · | -1.13 | -0.97 | 3.44 | -0.63 | 1.19

37) C=CCOc1ccc(C2c3c(-c4ccccc4O)n[nH]c3C(=O)N2Cc2cccnc2)cc1OCC (configuration not stated)
38) CCOC(=O)c1c(C)[nH]c(C)c1S(=O)(=O)NCC(=O)N1CCCCC1
39) O=C(NC1CCOCC1)N1CCN(c2ccccc2)CC1
40) Cc1ccc(S(=O)(=O)OCC23C=CC(CC2)CC3)cc1
41) O=C(Nc1ccc(Cl)cc1)N1CCN2CCCC2C1 (configuration not stated)
42) Cc1csc(NC(=O)CSc2nnc3ccc(-c4cccnc4)nn23)n1
entry no. | 37 | 38 | 39 | 40 | 41 | 42
CDC25B-CDK2 inh | 0.48 | · | -0.43 | -0.03 | 0.3 | ·
HIV TAR-Tat | -2.76 | 1.01 | 0.18 | · | 0.63 | 0.61

43) c1cncc(-c2nc3c4ccccc4nc(N4CCC(N5CCCCC5)CC4)n3n2)c1
44) CSc1ccc(CC2C(=O)Nc3ccc(Br)cc32)cc1 (configuration not stated)
45) Cc1ccc(NC(=O)CSc2nncn3c2cc2oc(C)cc23)c(C)c1
46) CCS(=O)(=O)c1nc(S(=O)(=O)c2ccc(C)cc2)c(NC2CCCCC2)s1
47) COc1cccc2c1[C@@H]1CN(CCCCn3c(=O)[nH]c4c(sc5ncc(-c6ccccc6)nc54)c3=O)C[C@@H]1CO2
48) CCOC(=O)CCCn1ncn2c(cc3sc(CC)cc32)c1=O
entry no. | 43 | 44 | 45 | 46 | 47 | 48
CDC25B-CDK2 inh | -2.18 | -0.54 | · | -0.27 | 0.56 | -1.7
HIV TAR-Tat | · | 0.91 | 2.51 | 1.32 | · | 0.79

49) COc1ccc(OC)c(CN2C(=O)c3ccncc3C2=O)c1
50) Cn1nc(C(=O)NCCCN2CCCCC2)c2c1-c1ccccc1S(=O)(=O)C2
51) Cc1cc(C)c(NC(=O)CN(C)S(=O)(=O)c2ccc3c(c2)CCC(=O)N3)c(C)c1
52) CCNc1cc(N2CCC(C)CC2)c2noc3c2c1C(=O)c1ccccc1-3
53) CCOC(=O)CNS(=O)(=O)c1ccc2c(c1)oc(=O)n2C
54) Cn1[nH]c(Nc2ccccc2Cl)c(N=Nc2ccc(C(F)(F)F)cc2)c1=O
entry no. | 49 | 50 | 51 | 52 | 53 | 54
CDC25B-CDK2 inh | · | 0.19 | -2.13 | -1.25 | -1.35 | -1.48
HIV TAR-Tat | -0.25 | 2.53 | · | -2.31 | · | ·

# Down the list, from the results shown:
# CDC25B-CDK2 inh, entries 49 to 54, in order: ·, 0.19, -2.13, -1.25, -1.35, -1.48

# Going on with the list.
55) Cc1ccc(S(=O)(=O)c2nc(S(C)(=O)=O)sc2NCc2ccco2)cc1
56) COc1ccc2nc(NC(=O)CSc3nc4ncccc4o3)sc2c1
57) CCn1nc(C)c(CCNC(=O)CCc2c(C)nn(-c3ccc(N4CCCCC4)nn3)c2C)c1C
58) COc1ccc(-c2cn3cccc(C)c3n2)cc1
59) CCn1ccnc1CC1COc2ccccc2O1 (configuration not stated)
60) CC1(C)CC(=O)C2=C(C1)Oc1ccccc1C2CC(=O)c1ccc(O)cc1 (configuration not stated)
entry no. | 55 | 56 | 57 | 58 | 59 | 60
CDC25B-CDK2 inh | -0.06 | · | · | -0.68 | -1.02 | -0.26
HIV TAR-Tat | 0.43 | 0.71 | 4.64 | -0.33 | · | ·

61) O=C(Nc1ccccc1F)c1nn(-c2ccccc2)ccc1=O
62) COc1cc(C2C3=C(CC(C)(C)CC3=O)Nc3nc4ccccc4n32)cc(OC)c1OC (configuration not stated)
63) Cc1cc(C)cc(N2C(=O)c3cc4occc4n3CC2(C)C(=O)NC2CCCCC2)c1 (configuration not stated)
64) CCOC(=O)CNC(=O)NCc1c(C)nn(C)c1C
65) Cc1ccc(Nc2c(-c3ccc(C(C)C)cc3)c(=O)c2=O)cc1F
66) Cc1cccc(CCNc2ncnc3c2nc2n3CCCC2)c1
entry no. | 61 | 62 | 63 | 64 | 65 | 66
CDC25B-CDK2 inh | 1.65 | -1.36 | · | · | · | ·
HIV TAR-Tat | 0.6 | · | 3.54 | 0.98 | 2.88 | 1

67) Cn1nc(-c2ccc(Cl)cc2)c2cc(C(=O)N3CCN(C(=O)c4ccco4)CC3)sc21
68) CC(=O)[C@]1(O)Cc2c(O)c3c(c(O)c2[C@@H](O[C@H]2C[C@H](N)[C@H](O)[C@H](C)O2)C1)C(=O)c1ccccc1C3=O
69) Cc1cc(C)c(NC(=O)C2=Cc3cc(Br)ccc3OC2)c(C)c1
70) CN1CCc2c(sc(-n3cccc3)c2CNC(=O)Nc2ccc(F)cc2)C1
71) CCc1c(C)sc(NC(=O)c2cc3n(n2)C(C(F)(F)F)CC(c2ccco2)N3)c1C#N (configuration not stated)
72) CCN(c1ccc(OC)cc1)S(=O)(=O)c1ccc(-c2ccc(=O)[nH]n2)o1
entry no. | 67 | 68 | 69 | 70 | 71 | 72
CDC25B-CDK2 inh | -0.72 | -1.11 | · | · | -1.72 | ·
HIV TAR-Tat | · | -7.56 | 1.14 | -6.6 | -0.38 | 1.31

73) O=C(Nc1nnc(N2CCCC2)s1)Nc1ccccc1F
74) O=C(O)CN1C(=O)c2cccc3c(Br)ccc1c23
75) CCC1CN(C(=O)Nc2ccccc2Br)c2ccccc2O1 (configuration not stated)
76) CC1CN(c2ccc(Oc3ccccc3)cc2)c2nc3c(c(=O)n(CC(=O)O)c(=O)n3C)n2C1 (configuration not stated)
77) Cc1cc(C)cc(NS(=O)(=O)c2ccc3c(c2)NC(=O)CC(C)S3)c1 (configuration not stated)
78) CCOC(=O)CN1C(=O)C(O)(c2c[nH]c3ccccc23)c2ccccc21 (configuration not stated)
entry no. | 73 | 74 | 75 | 76 | 77 | 78
CDC25B-CDK2 inh | 0.61 | -2.89 | · | -1.89 | · | -0.46
HIV TAR-Tat | -0.28 | 0.93 | 2.24 | -0.44 | 0.19 | ·

79) CC1CCN(C(CNC(=O)c2cc(-c3cccs3)on2)c2cccs2)CC1 (configuration not stated)
80) CSc1cccc(N/C(=N\S(=O)(=O)c2ccccc2)NN)c1
81) CCC(C)NC(=O)CCC(=O)N1CCCn2nc(-c3cn(C)c4ccccc34)cc21 (configuration not stated)
82) Cc1cccc(C)c1Nc1nn2c(=O)c3cc4c(cc3nc2s1)OCO4
83) CCCc1nc2nc(C)cc(Nc3ccccc3OCC)n2n1
84) CC(C)OCCCNC(=O)C1CCCN1c1nnc(N2CCCC2=O)s1 (configuration not stated)
85) O=C(Cn1c(-c2cccs2)cc2ccccc21)NCc1ccccn1
86) O=C(Nc1ccc(Cl)cc1)N1CCN(c2nc3cc(F)ccc3n3cccc23)CC1
entry no. | 79 | 80 | 81 | 82 | 83 | 84 | 85 | 86
CDC25B-CDK2 inh | -4.66 | -1.57 | · | 0.8 | -0.13 | -2.69 | · | ·
HIV TAR-Tat | -5.52 | · | 1.77 | 0.3 | 2.23 | 2.98 | -1.22 | 0.16

# Entries listed so far that contain fluorine (twelve):
2) Cc1ccc(/C(O)=C2/C(=O)C(=O)N(c3cccnc3)C2c2cccc(F)c2)cc1 (configuration not stated)
7) O=C1CN(Cc2ccccc2)S(=O)(=O)c2ccccc2N1Cc1ccccc1F
9) O=C1CC(c2cccc(F)c2)c2cnn(-c3nc4ccccc4s3)c2N1 (configuration not stated)
12) CCOC(=O)Cn1nc(-c2ccc(F)cc2)cc(Cc2ccccc2)c1=O
28) O=C(Nc1ccc(F)c(Cl)c1)c1ccc2cccc(O)c2n1
54) Cn1[nH]c(Nc2ccccc2Cl)c(N=Nc2ccc(C(F)(F)F)cc2)c1=O
61) O=C(Nc1ccccc1F)c1nn(-c2ccccc2)ccc1=O
65) Cc1ccc(Nc2c(-c3ccc(C(C)C)cc3)c(=O)c2=O)cc1F
entry no. | 2 | 7 | 9 | 12 | 28 | 54 | 61 | 65
CDC25B-CDK2 inh | -1.96 | · | · | 0.2 | -0.78 | -1.48 | 1.65 | ·
HIV TAR-Tat | 0.34 | 2.1 | 4 | · | -0.17 | · | 0.6 | 2.88

70) CN1CCc2c(sc(-n3cccc3)c2CNC(=O)Nc2ccc(F)cc2)C1
71) CCc1c(C)sc(NC(=O)c2cc3n(n2)C(C(F)(F)F)CC(c2ccco2)N3)c1C#N (configuration not stated)
73) O=C(Nc1nnc(N2CCCC2)s1)Nc1ccccc1F
86) O=C(Nc1ccc(Cl)cc1)N1CCN(c2nc3cc(F)ccc3n3cccc23)CC1
entry no. | 70 | 71 | 73 | 86
CDC25B-CDK2 inh | · | -1.72 | 0.61 | ·
HIV TAR-Tat | -6.6 | -0.38 | -0.28 | 0.16
